ClpP mod: qHTS Assay for Activators of ClpP; Potency, µM (doses to about 57.5 µM), inactives show top-dose activity change, negative = active; ATP-dependent Clp protease proteolytic subunit (Bacillus subtilis (strain 168)), P80244; actives 1.9% (n = 340,000); purified B. subtilis ClpP, FRET peptide cleavage, 20 min; active = well fitted falling curve with a large enough effect; inconclusive = small, poorly fitted or top-dose-only effect; inactive = no such curve, though single readings can be large or run the other way; further: potency means the concentration at half of the fitted maximal effect; the source files actives as falling curves though it sought activators and does not explain the sign; nearly all actives have a fitted effect of over 65% in size; many hits overshoot -100%
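ClpP 10 microg/mL final, pH 8 Tris/KCl buffer with BSA, glycerol, Tween-20; compound pinned in; FRET-FV substrate; RT 20 min; Ex320/Em430; ΔFRET vs ADEP 5.8 microM, DMSO, no enzyme.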
Menin-MLL FL inh: qHTS Assay for Inhibitors Targeting the Menin-MLL Interaction in MLL Related Leukemias: Competition With Fluorescein Labeled MLL-derived Peptide. Fluorescence polarization, fluorescein-MLL peptide displacement from menin. FP activity change, % at 61.4 µM. 290,000 tested, under 10 active. AID 1766, 2009; inconclusive = falling polarisation curve, or a change in total fluorescence; inactive = total fluorescence flat and polarisation flat or rising; no compound was filed as active; the % refers to the polarisation; negative = inhibition;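 further: % of control where 0% means no effect; inhibitors lower the polarisation; unlabelled MLL peptide was the positive control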
TRPV1 potentiator: HTS Assay for Compounds that Act as Potentiators of the Vanilloid Receptor 1. Transient receptor potential cation channel subfamily V member 1 (Homo sapiens), Q8NER1. TRPV1-expressing cells, Fluo-8 calcium influx, capsaicin EC20 potentiation; host cell line not named in the record; control for the full effect not named in the record. potentiation, % at 8.33 µM. actives 0.02% (n = 320,000). AID 540277, 2011; active means potentiation above 80%; inconclusive means 30% to 80%; inactive means below 30%; further: 0% is about no effect
Target sequence (Q8NER1 whole entry, looked up): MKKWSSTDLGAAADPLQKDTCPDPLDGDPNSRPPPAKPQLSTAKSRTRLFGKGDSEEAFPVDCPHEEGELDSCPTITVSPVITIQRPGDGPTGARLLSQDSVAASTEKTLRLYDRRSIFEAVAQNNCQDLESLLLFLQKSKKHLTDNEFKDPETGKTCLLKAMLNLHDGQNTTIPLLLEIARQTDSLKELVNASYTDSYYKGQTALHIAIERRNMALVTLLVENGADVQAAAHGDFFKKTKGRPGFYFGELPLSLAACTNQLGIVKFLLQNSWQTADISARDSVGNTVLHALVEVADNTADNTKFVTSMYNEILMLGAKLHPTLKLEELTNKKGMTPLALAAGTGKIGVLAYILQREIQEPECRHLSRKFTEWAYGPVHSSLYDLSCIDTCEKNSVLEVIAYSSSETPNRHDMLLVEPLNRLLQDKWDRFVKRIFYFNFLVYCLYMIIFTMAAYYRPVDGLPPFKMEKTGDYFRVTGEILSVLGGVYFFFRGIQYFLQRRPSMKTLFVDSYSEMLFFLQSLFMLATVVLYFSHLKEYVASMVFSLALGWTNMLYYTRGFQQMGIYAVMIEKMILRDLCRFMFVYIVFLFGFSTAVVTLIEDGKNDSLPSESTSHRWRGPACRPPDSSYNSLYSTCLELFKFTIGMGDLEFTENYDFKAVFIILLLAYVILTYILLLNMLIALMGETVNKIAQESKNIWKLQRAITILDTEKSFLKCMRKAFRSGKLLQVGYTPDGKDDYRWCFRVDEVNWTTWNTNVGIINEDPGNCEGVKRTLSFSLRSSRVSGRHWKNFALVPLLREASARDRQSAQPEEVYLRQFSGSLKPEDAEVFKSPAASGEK
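TRPV1-expressing cells were cultured overnight at 35.5C and loaded with Fluo-8 calcium dye for 40 to 90 min at room temperature. After a 10 s baseline, compound was added and calcium influx was read kinetically for 3 min (ex 480/em 520 nm).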
gsp ag: qHTS for Agonist of gsp, the Etiologic Mutation Responsible for Fibrous Dysplasia/McCune-Albright Syndrome: qHTS; gsp mutant cells, cAMP HTRF, 30 min; control for the full effect not named in the record; Potency, µM (titrated, usually from 76.9 µM), for the others: at the top dose activation (cAMP increase), most hits filed as activators; actives 0.13% (n = 340,000); active = well fitted activation curve with a large enough effect; inconclusive = small, poorly fitted or top-dose-only effect, or another doubt; inactive = no such curve, though single readings can be large or run the other way; cell line not stated here;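 further: phosphodiesterase inhibitor Ro 20-1724 added with compounds to block cAMP breakdown; potency means the concentration at half of the fitted maximal effect; nearly all actives have a fitted effect of over 60% in size; about a fifth of the inactives were tested at one dose only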
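Cells in DMEM/10% FBS with G418 were pretreated with compounds in DMSO plus […] (300 uM stock) for 30 min at 37C. cAMP was measured by HTRF (cAMP-d2 plus anti-cAMP antibody-K) after 30 min at room temperature.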
CtBP-E1A blk: qHTS Assay for Inhibitors of the CtBP/E1A Interaction; CtBP / adenovirus E1A interaction (AlphaScreen); AlphaScreen GST-E1A/His-CtBP binding, 1536-well; stronger effect = lower value; control for the full effect not named in the record; activity change, % (no concentration beside the values); actives 0.49% (n = 340,000); in the data active means activity change below about -65%; inconclusive means about -30% to -65%; inactive means above about -30%; further: on the % scale 0 is the no-effect control and ±100 the full control effect; compound concentration not given in the record
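In 5 uL wells, 23 nL compound meets equimolar GST-E1A and His-CtBP (5X stock 125 nM each) for 2 h, 37 °C. Beads (5X, 50 ug/mL) then 1 h, 37 °C, dark.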
Sfp PPTase inh: qHTS Assay for Inhibitors of Bacillus subtilis Sfp phosphopantetheinyl transferase (PPTase) | 4'-phosphopantetheinyl transferase ffp (Bacillus subtilis), Q9F4F7 | Biochemical Sfp PPTase activity, qHTS | Potency, µM, without a hit: max response, negative = inhibition, hits mostly inhibitors | actives 3.5% (n = 310,000) | AID 1490, 2009; active means well fitted inhibition curve with a large enough effect; inconclusive means small, poorly fitted or top-dose-only effect, or another doubt; inactive means no such curve, though single readings can be large or run the other way;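 further: the enzyme is Sfp with the accession as filed and its product quenches rhodamine fluorescence; potency means the concentration at half of the fitted maximal effect; 0% = enzyme reaction without inhibitor and -100% = no enzyme wells; top concentration of the series not given in the record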
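Reaction rates are the 30-min fluorescence difference (ex 525, em 598 nm) in wells containing 15 nM Sfp, 5 uM rhodamine-CoA and 12.5 uM BHQ-2-YbbR at pH 7.6 with 10 mM MgCl2.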
gsp antag: qHTS for Antagonists of gsp, the Etiologic Mutation Responsible for Fibrous Dysplasia/McCune-Albright Syndrome: qHTS; AID 624288, 2012; Potency, µM (doses to about 76.9 µM), for the others: at the top dose activity change, negative = inhibition, actives largely listed as inhibitors; actives 0.4% (n = 340,000); gsp-mutant cells, cAMP HTRF, 30 min; control for the full effect not named in the record; active = falling curve of any shape with a large fitted effect; inconclusive = falling curve, mostly with a smaller effect; inactive = flat or rising curve; cell line not stated here;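 further: intracellular cAMP measured with PDE inhibitor Ro 20-1724 present during compound exposure; potency means the concentration at half of the fitted maximal effect; on the % scale 0 is the no-effect control and ±100 the full control effect; nearly all actives have a fitted effect of over 65% in size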
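Measurement of cellular cAMP by homogeneous time-resolved fluorescence following a 30 min compound exposure at 37C. The PDE inhibitor […] was present throughout; the assay buffer was DPBS with 0.05% BSA and 0.005% Tween 20.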
* = called active by the depositor; ? = inconclusive; . = no result given; [ ] = remark or other dose.

SMILES	ClpP mod	Menin-MLL FL inh	TRPV1 potentiator	gsp ag	CtBP-E1A blk	Sfp PPTase inh	gsp antag
COc1ccccc1N1CCC(N2CCN(CC(C)(C)C)C(CCO)C2)CC1 (stereo not drawn)	.	1.5	-3	-15%	2	4%	5%
CSCC[C@H](NC(=O)CCCn1nnc2ccccc2c1=O)C(=O)O	-3.0%	3.7	?	?	1	20%	8%
CCSc1nnc(NC(=O)C2Cc3ccccc3CN2S(=O)(=O)CC)s1 (stereo not drawn)	-2.9%	7.5	-2	-12%[15.4 µM]	-23	3%	-5%
COc1ccc(C)cc1NC(=O)COC(=O)c1ccc2ccccc2n1	-3.5%	.	-9	-32%[inhibitor]	-4	.	-14%
Cc1ccc2c(CN(C)Cc3cccc(F)c3)cc(=O)oc2c1C	-2.7%	0.6	-10	-1%	-1	-8%	?
NC(=O)CCn1c(C(=O)c2ccc(Cl)cc2)c2ccccc2[n+]1[O-]	1.3%	0.5	14	20%	2	-2%	?
O=C(N/N=C/c1cn(-c2ccccc2)nc1-c1cc2ccccc2o1)c1c[nH]c2ccccc12	.	0.6	1	-12%	-8	37%[activator]	-27%
Cc1cccc(N2N=C(C(=O)O)CCC2=O)c1	-6.0%	3.6	?	18%	-11	16%	6%
O=C(NCc1ccc(F)cc1)C1CCN(C(=O)Nc2ccc(F)cc2)CC1	0.9%	-0.5	24	-3%[15.4 µM]	-12	10%	7%
O=C(COc1ccc2ccccc2c1Br)NC(=S)Nc1cccc(CO)c1	-1.7%	0.5	27	?	12	-10%	24%
Cc1cc(=O)c(C(=O)O)nn1-c1ccc(Cl)cc1	-0.3%	4.0	-1	4%	.	-4%	5%
CCOC(=O)c1cc(S(=O)(=O)N2CC(C)CC(C)C2)cn1C (stereo not drawn)	.	.	2	-31%[inhibitor]	6	14%	-2%
O=S(=O)(NCc1cc(-c2ccc(Cl)cc2)no1)c1ccccc1	-0.2%	-1.1	.	-28%	3	9%	9%
O=C(CC1Oc2ccccc2NC1=O)NCc1ccc(Cl)cc1 (stereo not drawn)	3.6%	-0.8	6	-25%	-2	-12%	3%
COC(=O)Cn1cc(C(=O)OC)c2ccccc21	-1.1%	0.1	18	1%	10	14%	-8%
Cc1c(F)cccc1NS(=O)(=O)c1ccc(OCCNS(C)(=O)=O)cc1	.	0.7	7	14%	0	-5%	4%
CC1CCN(CCCNS(=O)(=O)c2cc(Br)cc3c2N(C(=O)C2CC2)CC3)CC1	.	-1.7	-1	0%[15.4 µM]	-10	-5%	17%
Cc1nn(Cc2ccc(C(=O)Nc3nc4c(C)cccc4s3)o2)c(C)c1Br	-26%	2.1	8	36%	2	-13%	4%
CCOc1ccc(OCCC(=O)Nc2ccccc2C(=O)NC2CC2)cc1	-6.0%	.	.	-69%[inhibitor]	-1	.	.
COc1cc(C(=O)NCCC2=CCCCC2)ccc1OC1CCN(C(C)=O)CC1	-2.6%	.	-10	-71%[inhibitor]	-4	-11%	-3%

Some entries already given, showing only gsp antag and gsp ag:
Molecule | gsp antag | gsp ag
Cc1nn(Cc2ccc(C(=O)Nc3nc4c(C)cccc4s3)o2)c(C)c1Br | 4% | 36%
O=S(=O)(NCc1cc(-c2ccc(Cl)cc2)no1)c1ccccc1 | 9% | -28%

(listing goes on)
SMILES	ClpP mod	Menin-MLL FL inh	TRPV1 potentiator	gsp ag	CtBP-E1A blk	Sfp PPTase inh	gsp antag
O=C(Nc1ccc(F)cc1)Nc1cccnc1	-0.3%	1.7	-12	-12%	6	21%	-2%
c1ccc(-c2nnc(N3CCCC3)nc2-c2ccccc2)cc1	-1.9%	-6.0	-20	0%	-6	-17%	-9%
O=C(CCCOc1ccccc1)Nc1nc2ccccc2[nH]1	.	-0.5	6	-12%[15.4 µM]	0	14%	15%
CC(=O)c1ccc(N2CCN(C(=O)C3CCCN(S(=O)(=O)c4c(C)[nH]c(=O)[nH]c4=O)C3)CC2)cc1 (stereo not drawn)	.	-6.8	0	17%[15.4 µM]	.	12%	9%
Nc1nc(NCCCN2CCOCC2)nc(Nc2ccccc2)c1[N+](=O)[O-]	-3.3%	.	-7	8%	-4	9%	15%
CC(C)OCCCn1c(SC(C)C(=O)NCC2CCCO2)nc2cc(Cl)ccc2c1=O (stereo not drawn)	0.4%	.	-3	-7%	-1	.	-9%
O=[N+]([O-])c1cccc(CN2CCC(Cc3ccccc3)CC2)c1	0.4%	-2.4	0	3%[15.4 µM]	0	0%	-9%
Cc1ccc(F)cc1NC(=O)CN1C(=O)NC(C)(c2ccc3c(c2)OCCO3)C1=O (stereo not drawn)	1.9%	.	-8	-38%[inhibitor]	3	.	14%
O=C(C1CCCN(Cc2nc(-c3cccs3)no2)C1)N1CCOCC1 (stereo not drawn)	3.2%	-3.0	-7	-13%	2	12%	7%
CCC(C)c1ccccc1OCCOCCN1CCCC1 (stereo not drawn)	0.3%	-1.9	1	0%	-1	-9%	12%
Fc1cccc2sc(Nc3nnc(-c4ccccc4)o3)nc12	1.3%	4.7	26	5%[15.4 µM]	-1	-14%	?
O=C(O)c1cc2ccc3ccccc3c2[nH]1	-20%	1.2	?	-11%	8	?	-8%

Sorted by the number under CtBP-E1A blk (largest number first): 4 of the compounds above
SMILES,Menin-MLL FL inh,gsp ag,CtBP-E1A blk,Sfp PPTase inh,gsp antag
O=C(O)c1cc2ccc3ccccc3c2[nH]1,1.2,-11%,8,?,-8%
O=C(C1CCCN(Cc2nc(-c3cccs3)no2)C1)N1CCOCC1 (stereo not drawn),-3.0,-13%,2,12%,7%
O=C(CCCOc1ccccc1)Nc1nc2ccccc2[nH]1,-0.5,-12%[15.4 µM],0,14%,15%
Fc1cccc2sc(Nc3nnc(-c4ccccc4)o3)nc12,4.7,5%[15.4 µM],-1,-14%,?

Look-ups from the list.
Value of O=C(C1CCCN(Cc2nc(-c3cccs3)no2)C1)N1CCOCC1 (stereo not drawn) in Sfp PPTase inh: 12%
Value of Fc1cccc2sc(Nc3nnc(-c4ccccc4)o3)nc12 in Sfp PPTase inh: -14%
Value of O=C(O)c1cc2ccc3ccccc3c2[nH]1 in CtBP-E1A blk: 8
Value of CC(=O)c1ccc(N2CCN(C(=O)C3CCCN(S(=O)(=O)c4c(C)[nH]c(=O)[nH]c4=O)C3)CC2)cc1 (stereo not drawn) in gsp ag: 17%[15.4 µM]

Assay outcomes: PubChem, National Center for Advancing Translational Sciences (NCATS)
